From PubChem BioAssay
NPYLR7 agonist: agonists of mosquito NPYLR7 receptor, primary screen, cell-based, Aedes aegypti, calcium fluorescence, mosquito biting behavior. Aedes aegypti neuropeptide Y-like receptor 7 (NPYLR7). 270,000 tested, 0.15% active. AID 1259423, 2018. activation, % at 10 µM. HEK293T NPYLR7/Galpha15, GCaMP6s calcium fluorescence; in the data active = activation above about 40%;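 note: 0% = vehicle and 100% = reference agonist at the receptor; some compounds past the cut are filed as inactive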
NPYLR7 agonist max-min: second read-out of NPYLR7 agonist, no call of its own (marks repeat the call); activation, %; measured here: Max-Min RFU normalised activation; some inactives read as strong as hits;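 span of the calcium signal over five minutes; 0% = vehicle and 100% = native peptide agonist; compound fluorescence can raise it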
Active calls of the source: *; & = joins results of further samples. A portion of the library, so the mix of outcomes need not match the whole.

Preview, three compounds:
Below each SMILES – NPYLR7 agonist max-min	NPYLR7 agonist
1) CN1CC2(CCN(C(=O)CCc3nc4cccnc4n3C)C2)OC1=O (stereo not given)
  -1	-1
2) O=C(Nc1ccc(F)c(Cl)c1)N1CCN(c2ccc(-c3ccco3)nn2)CC1
  3	3
3) CCOC(=O)CNS(=O)(=O)c1ccc(F)cc1Br
  2	3

The list itself, repeating the preview:
Below each SMILES – NPYLR7 agonist max-min	NPYLR7 agonist
1) CN1CC2(CCN(C(=O)CCc3nc4cccnc4n3C)C2)OC1=O (stereo not given)
  -1	-1
2) O=C(Nc1ccc(F)c(Cl)c1)N1CCN(c2ccc(-c3ccco3)nn2)CC1
  3	3
3) CCOC(=O)CNS(=O)(=O)c1ccc(F)cc1Br
  2	3
4) CC(=O)c1ccc(Oc2cc(C)nc(SCc3ccccc3Cl)n2)cc1
  17	15
5) Cc1cc(F)cc2c1N(Cc1nc(CS(C)(=O)=O)no1)CCC2
  4	7
6) CCN(CC)C1CCN(c2nc(-c3ccccc3)nc3c2CCC3)C1 (stereo not given)
  11	20
7) O=C(NCCN1CCCCC1)c1cc2n(n1)CCN(Cc1cccc(C(F)(F)F)c1)C2=O
  3	-6
8) CC1(C(=O)Nc2cnc3ccccc3c2)CCN1Cc1ccc(-c2ccccn2)cc1 (stereo not given)
  4	11
9) CC(NC(=O)c1ccc(-c2ccc(F)c(F)c2)s1)c1ccc(Br)cc1 (stereo not given)
  1	4
10) O=C(NN1CCOCC1)c1cc2c(s1)-c1ccccc1OC2
  5	7
11) CC(C)CCn1c(N2CCN(Cc3ccc(Cl)cc3Cl)CC2)nc2c1c(=O)[nH]c(=O)n2C
  20	26
12) O=C(NCc1ccccc1)NCN1C(=O)[C@@H]2[C@H]3C[C@H]([C@@H]4O[C@H]34)[C@@H]2C1=O
  8	11
13) COC(=O)C(NC(=O)C(C)n1cncn1)c1ccccc1F (stereo not given)
  5	9
14) Clc1ncnc2c1C(c1ccc(Br)cc1)c1c(Cl)ncnc1O2
  11	10
15) N#Cc1ccnc(Sc2ccc(Cl)cc2)c1
  1	-4
16) CCN1C(=O)NC(c2ccsc2)C2=C1CN(CC(=O)NCc1ccc(F)cc1)C2=O (stereo not given)
  5	2
17) CCCc1cc(=O)[nH]c(SCC(=O)N2CCCC2=O)n1
  7	2
18) OCC(O)C1OC(Nc2ccc(Br)cc2)C(O)C1O (stereo not given)
  -2	2
19) CCCn1nccc1NC(=O)Cc1cccs1
  4	4
20) O=C(CCc1ccc2c(c1)CCO2)Nc1cccc(C(F)(F)F)c1
  2	5
21) Cc1cc(C)c2c(CC(=O)NCC(F)(F)F)coc2c1C
  -2	4
22) CC1(C(=O)NCc2cccs2)CCN1C(=O)C1(c2ccccc2)CCCC1 (stereo not given)
  2	3
23) CCC(C)NCc1cccc(OS(=O)(=O)CC)c1 (stereo not given)
  -11	-18
24) O=c1oc2ccc(Br)cc2cc1-c1nnc(Nc2ccc(Cl)cc2Cl)s1
  -17	-13
25) O=C(C1CCCO1)N1CCC(n2cnc3ccccc32)CC1 (stereo not given)
  3	18
26) C=CCN(CC(=O)N1CCCC(C)C1)C1CCCC1 (stereo not given)
  -3	0
27) CCOC(=O)C1CCN(c2c(N3CCCC(C(=O)OCC)C3)c(=O)c2=O)CC1 (stereo not given)
  12	10
28) COC(=O)c1ccc(CN(C)C(=O)c2csc(C(C)C)n2)cc1
  -1	1
29) O=C(CN1C[C@@H]2CC[C@H]1C2)N1CCc2c(nc(-c3cccnc3)[nH]c2=O)C1
  2	5
30) COCc1[nH]n(-c2ccc(Cl)c(Cl)c2)c(=O)c1C1=C(N2CCOCC2)C(=O)N(c2cccc(C)c2)C1=O
  -3	-12

Records 13 to 14, quoted:
Below each SMILES – NPYLR7 agonist max-min	NPYLR7 agonist
13) COC(=O)C(NC(=O)C(C)n1cncn1)c1ccccc1F (stereo not given)
  5	9
14) Clc1ncnc2c1C(c1ccc(Br)cc1)c1c(Cl)ncnc1O2
  11	10

(continued)
Below each SMILES – NPYLR7 agonist max-min	NPYLR7 agonist
31) O=c1oc2ccccc2cc1-c1nnc(Nc2cccc3ccccc23)s1
  -14	-11
32) Cc1nc2ccc(S(=O)(=O)NCCCn3nc(-c4ccncc4)ccc3=O)cc2s1
  9	15
33) CCc1nc2nc3c(cn2n1)C(=O)CC(c1ccc(C(C)C)cc1)C3 (stereo not given)
  12	19
34) Cc1cc(CNC(=O)CC2C(=O)NCCN2Cc2ccccc2C(F)(F)F)nn1C (stereo not given)
  -1	1
35) COc1cc(C(C)=O)ccc1OCC(=O)Nc1c(C)nc2ccccn2c1=O
  -1	-1
36) O=C(c1cccc([N+](=O)[O-])c1)N(Cc1cccnc1)c1nc2ccc(Cl)cc2s1
  -7	-12
37) O=C(NC1COc2ccccc21)c1ccc(OCC(F)(F)F)nc1 (stereo not given)
  0	3
38) CN[C@@H]1C(OC2[C@H](O[C@H]3[C@H](O)[C@@H](O)[C@H](N=C(N)N)[C@@H](O)[C@@H]3N=C(N)N)OC(C)[C@]2(O)CO)OC(CO)C(O)C1O (stereo not given in full)
  -12&-11	-5&-3
39) Cc1ccc(C)c(Cn2c(=O)c3c(nc4n(CCOCCO)c(C)c(C)n34)n(C)c2=O)c1
  -2	1
40) COCCN(Cc1ccc(OS(=O)(=O)c2ccc(F)cc2)cc1)C(=O)Nc1cccc(OC)c1
  -2	-9
41) CS(=O)(=O)c1ccc(Cl)c(Cl)c1
  4	5
42) CN1CCN(Cc2nc(-c3cccc(Cl)c3)no2)CC1c1ccccc1 (stereo not given)
  1	4
43) O=C(NCCNC(=O)[C@H]1CCCN1C(=O)c1ccco1)c1ccc(F)cc1
  16	4
44) CC(c1n[nH]c(=O)n1Cc1ccccc1)N1CCCC1 (stereo not given)
  8	13
45) CCCCn1c(=O)c2c(nc3n(C)c(C)c(C)n23)n(C)c1=O
  5	15
46) c1cc2c(c(-c3ccc(N4CCCCCC4)nn3)c1)CCNC2
  -9	-2
47) NNc1nc(-c2ccccc2)cc(-c2ccccc2)n1
  -9	-2
48) O=S(=O)(Nc1cc2c3c(oc2c2ccccc12)CCCC3)c1cccs1
  12	12
49) C=CCNC(=O)Cn1c(=O)c2c(OC)ccnc2n(C)c1=O
  2	3
50) COCCn1cc(NC(=O)Nc2cc(C)cc(C)c2)c2ccccc21
  8	14
51) O=C(c1cccs1)N1N=C(c2ccco2)CC1c1ccccc1O (stereo not given)
  -4	0
52) CN1CCN(n2c3c(c(SCC(=O)Nc4nccs4)nc2=O)CCCC3)CC1
  -12	-4
53) O=S(=O)(NC1CCCCCC1)c1ccc(Cl)c(Cl)c1
  2	3
54) O=C(CCC1CCCN(Cc2cccnc2)C1)N1CCOCC1 (stereo not given)
  -3	-2
55) CN(C)c1ccc(C(=O)N2CCN(C3CCCC3O)CC2)nn1 (stereo not given)
  -16	-13
56) Cc1ccc(NC(=O)CCn2nc(C)nc2C)cc1
  18	2
57) Cc1cc(C)nc(NCC2(N3CCCCC3)CCOCC2)n1
  16	15
58) COc1c2c(cc3c1C(NC(N)=O)[N+](C)(C)CC3)OCO2 (stereo not given)
  0	3
59) CCOc1ccccc1-c1nc(SCC(=O)O)n[nH]1
  -16	-11
60) COc1cccc(Cc2nsc(N(CCC(=O)NCc3cccc(C(F)(F)F)c3)Cc3ccco3)n2)c1
  -15	-13

(listing goes on)
Below each SMILES – NPYLR7 agonist max-min	NPYLR7 agonist
61) Cc1c(CN(C)c2ccc(-c3nccn3C)nn2)[nH]c2ccccc12
  12	23
62) CCC(CO)N1CC2([N+](=O)[O-])C=CCC([N+](=O)[O-])(C1)C2 (stereo not given)
  4	8
63) CC(C)(C)C(=O)Nc1c(-c2ccc(Cl)cc2)nc2ccccn12
  -2	-3
64) Cc1cc(C=C2C(=O)N(C)C(=O)N(C)C2=O)c(C)n1CC(C)C
  6	0
65) CCCCN(C)C(=O)CSc1nccnc1N1CCN(c2cccc(C)c2C)CC1
  8	8
66) CCCCCCNc1ccc(NC(=O)c2ccccc2)c2c1C(=O)c1ccccc1C2=O
  -7	-1
67) Cn1c(CO)nc2cc(Cl)ccc21
  9	2
68) CC1CN(C(=S)SCCN2Cc3ccccc3C2=O)CC(C)O1 (stereo not given)
  6	6
69) Cc1cc2c(=O)n(C)c(SCC(=O)Nc3cccc(F)c3)nc2s1
  -10	-10
70) COc1cc(-c2cc(C(=O)NC(c3ccccc3)c3ccc(Cl)cc3)c3ccccc3n2)cc(OC)c1OC (stereo not given)
  -5	-1
71) CC(Sc1ccc2c(c1)OCCCO2)C(=O)Nc1cccc(C#N)c1 (stereo not given)
  -11	-1
72) Cc1ccc(-c2nc(CN3CCCCC3c3nccs3)c(C)o2)o1 (stereo not given)
  2&-2	8&0
73) CCOc1ccc(-n2nnc(C(=O)OCc3nc(-c4ccc(Cl)cc4)oc3C)c2C)cc1
  -4	8
74) Cc1ccc2ncc(C(=O)NCCCOC(C)C)c(=O)n2c1
  1	4
75) Cc1cc(C)c(NC(=O)CSc2nc(C)cc(C)c2C#N)c(C)c1
  -8	-1
76) CC(C)CC(C)(CO)NCc1noc(C(C)(C)C)n1 (stereo not given)
  -1	3
77) CCN1C(=O)C2(CCCCC2)NC1c1cc(OC)c2c(c1)OCCO2 (stereo not given)
  -1	5
78) O=C(c1ccc(F)cc1C(F)(F)F)N1CCN(c2nc3nccc(-c4ccc5c(c4)OCO5)n3n2)CC1
  -3	3
79) N#CC(=Cc1ccc2c(c1)OCCO2)S(=O)(=O)c1cc(Br)ccc1Br
  8	-1
80) NC(=O)c1cccc(CC2CCN(C(=O)c3cnc4ccccn34)C2)c1 (stereo not given)
  0	3
81) COc1ccc(-c2csc(-n3[nH]c(-c4ccccc4)c(N=Nc4ccc(Cl)c([N+](=O)[O-])c4)c3=O)n2)cc1
  34	22
82) O=c1c(Cl)c(Cl)cnn1CCOc1ccc(Br)cc1
  -4	-8
83) CNC(=O)NC(=O)C(C)NCC1(c2cccc(OC)c2)CCCC1 (stereo not given)
  -2	2
84) COc1ccc(C(=O)n2c(SC)nc3cc4c(cc32)OCCO4)cc1
  2	-1
85) Cc1nc2ccc(CC(=O)N3Cc4cnc(CC(C)C)nc4C3)cc2[nH]1
  -1	0
86) CCC1CN(Cc2ncccc2F)CCN1C(C)C (stereo not given)
  -5	-3
87) CC1C(=O)N(c2cccc(Br)c2)CCN1Cc1ccc(F)cc1F (stereo not given)
  0	-2
88) COC(=O)C1Cc2nc[nH]c2CN1C(=O)c1oc2cc(OC)ccc2c1C (stereo not given)
  2	3
89) CCOC(C)c1noc(CN2CCCC2c2ncc(-c3ccccc3C(F)(F)F)[nH]2)n1 (stereo not given)
  0	3
90) CC(=O)c1c(C)[nH]c(C(=O)C(C)Sc2nnc3n2CCCCC3)c1C (stereo not given)
  5	3

The listing continues:
Below each SMILES – NPYLR7 agonist max-min	NPYLR7 agonist
91) CCc1nn2c(Nc3ccncc3)cc(C)nc2c1-c1ccccc1
  -6	-3
92) COc1ccc2c(=S)c(-c3csc(C)n3)c(C)oc2c1
  -8	-8
93) Cc1nc2c(n1C1CCCCC1)C(=O)c1ccccc1C2=O
  -3	0
94) CNCCC=C1c2ccccc2CCc2ccccc21
  -1&-7&-1&-24	4&-3&0&2
95) CC1C(=O)N(c2cccc(C(F)(F)F)c2)CCN1Cc1ccc(F)cc1 (stereo not given)
  -12	-15
96) COc1ccc(-c2ccc(F)cc2OC)nn1
  4	8
97) CC1Cc2ccccc2N1C(=O)NC(c1nccs1)C1CC1 (stereo not given)
  -3	-4
98) NC(Cc1ccccc1F)Cc1ccccc1F
  -1	5
99) CC(C)(C)c1ccc(COc2coc(CN3CCCN(C(=O)c4ccccc4OC(F)(F)F)CC3)cc2=O)cc1
  12	20
100) O=c1/c(=C/c2ccc([N+](=O)[O-])cc2)sc2nc(-c3ccco3)nn12
  24	19
101) COc1cccc2cc(C(=O)N3CCN(S(C)(=O)=O)CC3)oc12
  15	15
102) Cc1cc(S(=O)(=O)Cl)sc1C(=O)O
  -7	-2
103) COCCN1CC2=C(C1=O)C(c1ccc(Cl)c(Cl)c1)NC(=O)N2 (stereo not given)
  -2	-1
104) CCNc1ccnc(-c2ccc(C(C)N3CCOCC3)cc2)n1 (stereo not given)
  7	14
105) Cc1cc(C(=O)NNC(=O)CN2C(=O)NC(C)(C)C2=O)c(C)o1
  -11	-6
106) C=C(Nc1ccccc1C(=O)OC)c1c(C)[nH]n(-c2nc3ccccc3s2)c1=O
  -21	-10
107) COc1ccccc1C(=O)N(CCC(C)C)CC(=O)N1CCc2sccc2C1c1ccccc1C (stereo not given)
  -3	-5
108) COC(=O)c1cc(CNc2cccc(C)c2C(N)=O)c(C)s1
  -1	2
109) COc1ccc(C)c2sc(N(CCN3CCOCC3)C(=O)C3CCCCC3)nc12
  4	8
110) N#Cc1ccc2c(c1)C(c1ccc(CN3CCOCC3)cn1)C(=O)N2 (stereo not given)
  -7	1
111) Cc1ccc(C2=Nc3ncnn3C(c3ccccc3)C2)cc1 (stereo not given)
  2	11
112) CCC(c1nc2ccccc2c(=O)n1-c1cccc(Cl)c1)N(C)C(=O)C(Cl)c1ccccc1 (stereo not given)
  1	2
113) CCC(=O)NCCc1cc2c(C)ccc(C)c2[nH]c1=O
  14	1
114) O=C(c1ccc(OC2CCN(C(=O)C3CC3)CC2)cc1)N1CCN(CC2CC2)CC1
  13	10
115) CC(C)(C)n1ccc2c(cnc3nc(-c4ccccc4)nn32)c1=O
  5	0
116) Cc1nc(-c2ccccc2)sc1C(=O)Nc1c(C)nc2ccc(Cl)cn2c1=O
  0	4
117) CC(C)[C@@H]1C[C@@H]2C[C@H](N3CC(=O)N(c4ccccc4)C3=O)C[C@@H]2CO1
  -2	-6
118) O=C(NC1CC(=O)N(Cc2ccccc2)C1)c1cccc2ccnn12 (stereo not given)
  0	1

Fetched by structure from the entries so far (two):
Below each SMILES – NPYLR7 agonist max-min	NPYLR7 agonist
105) Cc1cc(C(=O)NNC(=O)CN2C(=O)NC(C)(C)C2=O)c(C)o1
  -11	-6
115) CC(C)(C)n1ccc2c(cnc3nc(-c4ccccc4)nn32)c1=O
  5	0

Values in list order from above:
Entries 91–102 in NPYLR7 agonist max-min: -6, -8, -3, -1&-7&-1&-24, -12, 4, -3, -1, 12, 24, 15, -7
